PINK1 modulator: modulators of PINK1 expression; PINK1 immunofluorescence, high-content cytometry, 24 h; Potency, µM (top dose mostly 76.6 µM), for the others: at the highest dose activation (PINK1 increase), actives largely listed as activators; 410,000 tested, 0.2% active; AID 624263; active = well fitted activation curve with a large enough effect; inconclusive = small, poorly fitted or top-dose-only effect; inactive = flat fitted curve, though single readings scatter; cell line not stated here;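 further: potency means the concentration at half of the fitted maximal effect; % of control where 0% means no effect; nearly all actives have a fitted effect of over 65% in size; a mitochondrial uncoupler was the plate control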
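Cells are seeded, rested 12 hours, then given compound at five concentrations or DMSO for 24 hours. After fixation, blocking and antibody staining, PINK1 amount and mitochondrial localization are scored; CCCP serves as control.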
D2 ag: agonists of human D2 dopamine receptor (beta-arrestin). DiscoveRx PathHunter D2 beta-arrestin, luminescence, 90 min; 100% = 57 uM dopamine signal. activation, % (test concentration not listed). 360,000 tested, 0.084% active. AID 624465; in the data active = activation above about 40%; inconclusive = about 15% to 40%; inactive = below about 15%; further: compound concentration not given in the record; the text of the record calls up to 30% inactive
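DiscoveRx PathHunter D2 beta-arrestin cells (2,100/well) attached overnight, then compound-stimulated 90 min at 37 C in HBSS/10 mM HEPES/0.1% Tween-20 buffer; beta-galactosidase complementation read by luminescence after 1 h at ambient temperature. Dopamine 57 uM final (EC100) as control.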
D2 potentiator: potentiates the human D2 dopamine receptor allosterically | 360,000 tested, 0.23% active | P14416 | AID 624464 | DiscoveRx D2 beta-arrestin cells, luminescence, 90 min; 100% = 57 uM dopamine signal | potentiation, % (test concentration not listed); active = potentiation of 50% or more; inconclusive = 30% to 50%; inactive = 30% or less;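 further: compound concentration not given in the record; tested on top of an EC20 dose of dopamine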
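PathHunter D2 cells, attached overnight at 37 deg C, received compound in DMSO plus dopamine at EC20 (50 nM final) for 90 min at 37 deg C. Beta-arrestin recruitment was read as luminescence after 1 h with detection reagent at ambient temperature.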
CtBP-E1A blk: blocks the CtBP interaction with E1A; activity change, % (concentration not given with the values); AlphaScreen GST-E1A/His-CtBP binding, 1536-well; stronger effect = lower value; control for the full effect not named in the record; 340,000 tested, 0.49% active; AID 651724; in the data active means activity change below about -65%; inconclusive means about -30% to -65%; inactive means above about -30%; further: on the % scale 0 is the no-effect control and ±100 the full control effect
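In 5 uL wells, 23 nL compound meets equimolar GST-E1A and His-CtBP (5X stock 125 nM each) for 2 h, 37 °C. Beads (5X, 50 ug/mL) then 1 h, 37 °C, dark.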
Six1-Eya2 blk: Six1/Eya2 interaction inhibition; activity change, % (no concentration beside the values); 360,000 tested, 0.56% active; AID 651725; Q15475+O00167; AlphaScreen GST-Six1/His-Eya2 binding, biochemical; stronger effect = lower value; control for the full effect not named in the record; in the data active = activity change below about -65%; inconclusive = about -30% to -65%; inactive = above about -30%; further: on the % scale 0 is the no-effect control and ±100 the full control effect; compound concentration not given in the record
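Homogeneous AlphaScreen proximity assay pairing GST-Six1 with His-tagged Eya2 (added as 5X mix: 250 nM and 500 nM) in 50 mM Tris pH 8.0, 300 mM NaCl, 1 mM TCEP. Glutathione donor and nickel acceptor beads; 1 h, 37 °C, dark.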
Sfp PPTase inh: Sfp phosphopantetheinyl transferase inhibition | 310,000 tested, 3.5% active | Potency, µM, for the others: max response, negative = inhibition, actives largely listed as inhibitors | Biochemical Sfp PPTase activity, qHTS; active means well fitted inhibition curve with a large enough effect; inconclusive means small, poorly fitted or top-dose-only effect, or another doubt; inactive means no such curve, though single readings can be large or run the other way;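 further: the enzyme is Sfp with the accession as filed and its product quenches rhodamine fluorescence; potency means the concentration at half of the fitted maximal effect; 0% = enzyme reaction without inhibitor and -100% = no enzyme wells; top concentration of the series not given in the record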
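With Hepes-Na pH 7.6 buffer containing 10 mM MgCl2, Sfp (15 nM) modified BHQ-2-YbbR (12.5 uM) using rhodamine-CoA (5 uM). Two reads 30 minutes apart at 525/598 nm yielded each well's rate.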
TRPV1 PAM: human TRPV1 potentiation | potentiation, % at 8.33 µM | Q8NER1 | 320,000 tested, 0.02% active | TRPV1-expressing cells, Fluo-8 calcium influx, capsaicin EC20 potentiation; host cell line not named in the record; control for the full effect not named in the record; active means potentiation above 80%; inconclusive means 30% to 80%; inactive means below 30%; further: 0% is about no effect
Target sequence (Q8NER1 whole entry, looked up): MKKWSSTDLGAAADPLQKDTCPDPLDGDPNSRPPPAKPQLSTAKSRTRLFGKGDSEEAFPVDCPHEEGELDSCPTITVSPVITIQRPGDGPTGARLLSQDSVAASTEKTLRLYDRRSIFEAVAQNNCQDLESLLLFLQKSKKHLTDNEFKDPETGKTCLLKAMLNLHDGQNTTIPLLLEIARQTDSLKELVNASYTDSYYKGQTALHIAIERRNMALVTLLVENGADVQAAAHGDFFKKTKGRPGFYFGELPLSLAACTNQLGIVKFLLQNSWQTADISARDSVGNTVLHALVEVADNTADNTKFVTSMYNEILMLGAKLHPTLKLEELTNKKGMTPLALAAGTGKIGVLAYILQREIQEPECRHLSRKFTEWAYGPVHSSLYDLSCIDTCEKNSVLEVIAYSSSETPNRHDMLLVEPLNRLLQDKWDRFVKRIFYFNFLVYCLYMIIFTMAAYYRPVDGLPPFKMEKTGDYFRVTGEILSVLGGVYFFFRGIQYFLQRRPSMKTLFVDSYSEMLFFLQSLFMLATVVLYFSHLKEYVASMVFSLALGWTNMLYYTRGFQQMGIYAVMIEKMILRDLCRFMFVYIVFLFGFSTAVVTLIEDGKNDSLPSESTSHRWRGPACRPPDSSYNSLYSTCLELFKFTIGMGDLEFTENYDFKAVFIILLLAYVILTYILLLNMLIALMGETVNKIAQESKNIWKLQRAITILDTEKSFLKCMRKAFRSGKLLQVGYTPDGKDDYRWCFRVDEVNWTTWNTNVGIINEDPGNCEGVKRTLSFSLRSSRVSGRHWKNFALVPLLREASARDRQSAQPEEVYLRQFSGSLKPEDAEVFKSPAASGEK
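Fluo-8 calcium influx in TRPV1-expressing cells, kinetic read (ex 480/em 520 nm). Compound added and read 3 min for agonist activity, followed by capsaicin at EC20 final and 2 min further read for enhancement.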
Starred values were filed as active, the others as inactive; ? = inconclusive; nt = not tested or not shown; [ ] = remark or other dose.

The opening eight records (preview)
[1] N=C(N)c1ccc(Cl)cc1
[2] CN(C(=O)CN1C(=O)C2C3CC(C(Br)C3Br)C2C1=O)C1CCCCC1 (stereo not given)
[3] CCN(CC(=O)Nc1cc(Cl)cc(Cl)c1)CC(=O)NC1CCS(=O)(=O)C1 (stereo not given)
[4] CCOC(=O)c1c(C)nc2c(c1C)c(=O)oc1ccccc12
[5] O=C(Cn1nnc(-c2ccccc2)n1)OCc1csc(-c2ccccc2)n1
[6] CC(Sc1ncnc2sc(-c3ccccc3)cc12)C(N)=O (stereo not given)
[7] CC(=O)c1ccc(NC(=O)C2CCN(S(=O)(=O)c3cccs3)CC2)cc1
[8] CCCNC(=O)c1cc(C2CCCN(S(=O)(=O)c3cccc4cccnc34)C2)on1 (stereo not given)
compound no.	1	2	3	4	5	6	7	8
PINK1 modulator	-0.4%	3.8%	-0.8%	1.6%	-0.4%	1.0%	0.0%	2.2%
D2 ag	0.0	2.4	-0.3	-1.8	-1.8	-1.4	-4.0	-3.0
D2 potentiator	-5	0	-10	-12	-11	-5	-12	-5
CtBP-E1A blk	-1	1	2	15	10	3	nt	-1
Six1-Eya2 blk	-5	7	3	20	3	-2	-3	-3
Sfp PPTase inh	9%	13%	nt	7%	-7%	-14%	14%	nt
TRPV1 PAM	23	1	nt	-12	6	1	-14	nt

This part in full, previewed entries included:
[1] N=C(N)c1ccc(Cl)cc1
[2] CN(C(=O)CN1C(=O)C2C3CC(C(Br)C3Br)C2C1=O)C1CCCCC1 (stereo not given)
[3] CCN(CC(=O)Nc1cc(Cl)cc(Cl)c1)CC(=O)NC1CCS(=O)(=O)C1 (stereo not given)
[4] CCOC(=O)c1c(C)nc2c(c1C)c(=O)oc1ccccc12
[5] O=C(Cn1nnc(-c2ccccc2)n1)OCc1csc(-c2ccccc2)n1
[6] CC(Sc1ncnc2sc(-c3ccccc3)cc12)C(N)=O (stereo not given)
compound no.	1	2	3	4	5	6
PINK1 modulator	-0.4%	3.8%	-0.8%	1.6%	-0.4%	1.0%
D2 ag	0.0	2.4	-0.3	-1.8	-1.8	-1.4
D2 potentiator	-5	0	-10	-12	-11	-5
CtBP-E1A blk	-1	1	2	15	10	3
Six1-Eya2 blk	-5	7	3	20	3	-2
Sfp PPTase inh	9%	13%	nt	7%	-7%	-14%
TRPV1 PAM	23	1	nt	-12	6	1

[7] CC(=O)c1ccc(NC(=O)C2CCN(S(=O)(=O)c3cccs3)CC2)cc1
[8] CCCNC(=O)c1cc(C2CCCN(S(=O)(=O)c3cccc4cccnc34)C2)on1 (stereo not given)
[9] Cc1ccc(NC(=O)COn2nnc3ccc(S(=O)(=O)N(C)C)cc32)cc1F
[10] CN(CC1COc2ccccc2O1)C(=S)Nc1ccccc1 (stereo not given)
[11] COc1cccc(-c2oc3c(c2-c2ccc(Br)nc2)C(O)CCC3)c1 (stereo not given)
[12] Cc1noc(C)c1S(=O)(=O)N(C)C[C@H]1OCc2cnnn2CCCC(=O)N([C@H](C)CO)C[C@H]1C
compound no.	7	8	9	10	11	12
PINK1 modulator	0.0%	2.2%	1.8%	-1.0%	1.7%	-0.2%
D2 ag	-4.0	-3.0	0.8	1.3	nt	-1.3
D2 potentiator	-12	-5	-5	-19	nt	6
CtBP-E1A blk	nt	-1	1	7	-23	-10
Six1-Eya2 blk	-3	-3	4	0	2	-3
Sfp PPTase inh	14%	nt	11%	nt	nt	nt
TRPV1 PAM	-14	nt	-12	nt	nt	nt

[13] Cn1c(CBr)c(C(=O)c2ccc([N+](=O)[O-])cc2)c(=O)n(C)c1=O
[14] CCOC(=O)Cc1c(Sc2ccccc2)c2ccccc2n1C
[15] COC(=O)c1ccc(/C=C/c2ccc3cccc(OC(C)=O)c3n2)cc1
[16] CCOc1ccc2c(c1)C(N(CCN1CCOCC1)C(=O)Nc1ccc(OC)cc1OC)CC(C)(C)O2 (stereo not given)
[17] NS(=O)(=O)c1cc(C(=O)OC2CCOC2=O)ccc1Cl (stereo not given)
[18] CC(CCc1ccccc1)NC(=O)COC(=O)C1=COCCO1 (stereo not given)
compound no.	13	14	15	16	17	18
PINK1 modulator	-1.2%	3.1%	5.3%	1.4%	0.1%	7.5%
D2 ag	5.0	0.3	-6.1	-1.2	-4.2	-5.5
D2 potentiator	16	2	-15	-18	-8	11
CtBP-E1A blk	7	-9	3	nt	-1	0
Six1-Eya2 blk	-2	32	-1	-5	-18	3
Sfp PPTase inh	?	5%	18µM*	20%	7%	9%
TRPV1 PAM	-7	6	-18	-5	-1	6

[19] CNS(=O)(=O)c1ccc(NC(=O)C(CCSC)NC(N)=O)cc1 (stereo not given)
[20] CC1(C)COC(c2coc3ccccc3c2=O)OC1
[21] COc1ccc(C2CC(c3ccc(OC)cc3)n3nc(N)nc3N2)cc1 (stereo not given)
[22] COC(=O)c1cn(C(=O)c2cccs2)c2ccccc12
[23] Nc1c(C(=O)Nc2ccc(S(=O)(=O)N3CCCC3)cc2)sc2nc3cc4c(cc3cc12)CCC4
[24] CC1CCCC(C)N1C(=O)COc1ccc(C(=O)N/N=C/c2ccc(C(=O)O)cc2)cc1 (stereo not given)
compound no.	19	20	21	22	23	24
PINK1 modulator	0.2%	2.1%	-0.9%	-0.6%	?	-0.3%
D2 ag	-2.0	1.1	-2.4	?	-2.3	-1.6
D2 potentiator	16	-9	-4	-38	-2	3
CtBP-E1A blk	2	-6	-26	5	0	6
Six1-Eya2 blk	3	6	7	0	-18	2
Sfp PPTase inh	-4%	8%	20%	-17%	-18%	22%
TRPV1 PAM	1	5	1	4	15	-7

[25] O=C1CC(c2ccccc2)CC(O)=C1C=NCCN1CCNCC1 (stereo not given)
[26] COc1ccc(-c2ccc(SCC(=O)NCC3CCCO3)nn2)cc1OC (stereo not given)
[27] Cc1ccc(S(=O)(=O)OCCC2=CC(=O)CCN2Cc2ccccc2)cc1
[28] CCCCSC1(SCCCC)N=C(N)C2(C#N)C(c3ccccc3)NC(C)=CC12C#N (stereo not given)
[29] CC(=O)c1cccc(NC(=O)C2CCN(C(=O)c3cccs3)CC2)c1
[30] Cc1cc(C)n(-c2ccc(NC(=O)C3CCN(Cc4ccccn4)CC3)cc2)n1
compound no.	25	26	27	28	29	30
PINK1 modulator	0.4%	0.0%	1.5%	11%	0.6%	0.2%
D2 ag	-1.9	-0.2	2.1	-3.9	-0.5	-6.3
D2 potentiator	-2	-7	3	-31	-8	-21
CtBP-E1A blk	1	-10	4	-1	0	-20
Six1-Eya2 blk	5	-22	0	-7	-21	-5
Sfp PPTase inh	3%	4%	nt	3%	2%	3%
TRPV1 PAM	3	6	nt	-10	10	-7

Look-ups from above.
Value of #26 in Sfp PPTase inh: 4%
Value of #30 in TRPV1 PAM: -7

(listing goes on)
[31] CCC(C)C(NC(=O)c1ccc(Cl)cc1)C(=O)O (stereo not given)
[32] CCn1cc(C(=O)OC(C)C(=O)Nc2c(C)n(C)n(-c3ccccc3)c2=O)c(=O)c2ccc(C)nc21 (stereo not given)
[33] COc1ccc(C)cc1S(=O)(=O)N1CCOCC1
[34] O=C(NCc1ccc(F)cc1)C1CCC(=O)N1C1CCCCC1 (stereo not given)
[35] CCOc1cccc(/C=N/NC(=S)NCCN2CCOCC2)c1O
[36] CCOc1ccc(N2C(=O)/C(=C/c3ccccn3)SC2=S)cc1
compound no.	31	32	33	34	35	36
PINK1 modulator	0.0%	1.8%	-0.9%	-1.3%[38.3 µM]	2.0%	-1.5%
D2 ag	-3.8	0.7	0.1	-1.5	6.0	-3.7
D2 potentiator	14	-4	-1	-1	2	-1
CtBP-E1A blk	3	-9	nt	0	-81*	1
Six1-Eya2 blk	14	-1	0	2	-92*	-11
Sfp PPTase inh	20%	7%	12%	9%	10%	14%
TRPV1 PAM	-2	6	5	-4	5	2

[37] CN(Cc1ccccc1)C(=O)CN1CCN(S(=O)(=O)c2ccc(Cl)c(Cl)c2)CC1
[38] O=[N+]([O-])c1ccc(/C=N/Nc2nc(N3CCCCC3)nc(N3CCCCC3)n2)cc1
[39] N#CC1=C(N)Oc2cc(N)ccc2C1c1ccc(F)cc1 (stereo not given)
[40] CCCNC(=O)c1ccccc1NC(=O)Cc1ccc(OC)c(S(=O)(=O)N2CCOCC2)c1
[41] N#Cc1ccc(S(=O)(=O)N2CCCCC2c2cc(C(=O)NCc3cccnc3)no2)cc1 (stereo not given)
[42] CCOc1ccc(-n2nc(C(=O)NC3CCCCC3)c3ccccc3c2=O)cc1
compound no.	37	38	39	40	41	42
PINK1 modulator	0.4%	8.3%	4.4%	0.0%	0.1%	2.6%
D2 ag	-5.0	-4.7	1.2	-5.9	-1.3	0.6
D2 potentiator	0	-1	1	-1	3	0
CtBP-E1A blk	-3	nt	2	1	5	8
Six1-Eya2 blk	1	-1	-1	3	1	2
Sfp PPTase inh	nt	-20%	-20%	nt	nt	18%
TRPV1 PAM	-11	-17	7	9	nt	-23

[43] CC(=O)c1ccc2c(c1)C1C=CCC1C(C(=O)O)N2 (stereo not given)
[44] CCC(C)(C)NC(=O)C(OC(=O)c1ccco1)c1ccc(OC)cc1 (stereo not given)
[45] O=C(CSc1ccccc1)NCC(c1ccco1)N1CCCCC1 (stereo not given)
[46] O=C(Nc1ccccc1)NC1CCN(CCCN2C(=O)c3ccccc3C2=O)CC1
[47] CCCCN(CCCC)CCCNC(=O)C1CC(c2ccc(C(F)(F)F)cc2)=NO1 (stereo not given)
[48] CC(C)C(NC(=O)c1ccc(S(=O)(=O)N2CCOCC2)cc1)c1nc2ccccc2[nH]1 (stereo not given)
[49] O=P(Cc1ccccc1)(c1ccccc1)c1ccccc1
[50] CCSc1ccccc1C(=O)Nc1nc2ccccc2c(=O)[nH]1
compound no.	43	44	45	46	47	48	49	50
PINK1 modulator	0.7%	2.0%	1.2%	-1.3%[38.3 µM]	-0.6%	9.7%[38.3 µM]	-1.4%	5.2%
D2 ag	6.3	-4.8	4.9	-0.8	-2.7	-2.0	-3.6	1.7
D2 potentiator	6	-4	0	-23	-18	-7	-4	-9
CtBP-E1A blk	?	-1	-1	18	4	-3	-3	-1
Six1-Eya2 blk	-68*	3	-1	2	8	2	-3	0
Sfp PPTase inh	-20%	5%	nt	19%	10%	10%	-7%	-2%
TRPV1 PAM	3	7	3	?	8	-3	-7	-4
